Assay outcomes as filed in PubChem BioAssay.
Vif A3G – inhibitors of Vif binding to APOBEC3G peptide, primary screen, biochemical, TR-FRET, GST-Vif 1-94, biotin-A3G peptide, dose response retest (AID 1117319) | TR-FRET GST-Vif / biotin-A3G peptide binding; higher % means a stronger effect; test concentration not given here; strong numbers were not always called active | 260,000 compounds, 0.57% hits | inhibition, %, or IC50 in µM where a hit was titrated | Virion infectivity factor (Human immunodeficiency virus type 1 group M subtype B (isolate …;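 active = above the screen mean plus three standard deviations and confirmed in dose response; inconclusive = results disagree or hit not tested in dose response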;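 also: Vif residues 1-94 fused to GST binding biotinylated APOBEC3G peptide 110-148; 0% = full assay without inhibitor and 100% = GST in place of GST-Vif; retest series ran down from 100 µM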
Ecoli growth – E. coli growth inhibition, primary screen, OD600. Escherichia coli growth, 23 h; stronger effect = lower value. OD600 absorbance (test concentration not listed). 330,000 compounds, 0.21% hits. AID 1053175, 2014;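 active = OD600 absorbance below the run mean of sample wells minus 3.6 SD, in any replicate, cut at about 0.56 in these data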;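 also: stock transfer was 300 nL into about 60 µL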
Ecoli rRNA inh – reduced GFP signal of wild-type E. coli, primary screen, bacterial rRNA inhibitor project, GFP/RFP fluorescence, OD600, single point; E. coli WT GFP vs humanized-ribosome RFP mutants, 24 h; stronger effect = lower value; DMSO median 0, no signal -100; GFP signal change (wild-type ribosome), % (no concentration beside the values); 350,000 compounds, 1.6% hits; AID 720706, 2013;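 active = significant combined selectivity score with lowered wild-type GFP, culture density cut under 30%, mutant RFP and density less affected; inactive = any of these conditions unmet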; also: one replicate is shown; some compounds called inactive have numbers as strong as hits
ALR H2O2 inh – inhibitors of human ALR sulfhydryl oxidase, primary screen, biochemical, H2O2 detection, HRP-luminol luminescence, single point; AID 485317, 2010; FAD-linked sulfhydryl oxidase ALR (Homo sapiens), P55789; inhibition, % (test concentration not listed); purified ALR, DTT oxidation; 290,000 compounds, 3.8% hits;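 active = mean and each replicate at 75% or more; inconclusive = only one of the two met; inactive = neither met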;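 also: stock transfer was 7.5 nL into about 7.5 µL; 0% = neutral wells and 100% = wells with inactivated enzyme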
Target sequence (P55789 whole entry, looked up): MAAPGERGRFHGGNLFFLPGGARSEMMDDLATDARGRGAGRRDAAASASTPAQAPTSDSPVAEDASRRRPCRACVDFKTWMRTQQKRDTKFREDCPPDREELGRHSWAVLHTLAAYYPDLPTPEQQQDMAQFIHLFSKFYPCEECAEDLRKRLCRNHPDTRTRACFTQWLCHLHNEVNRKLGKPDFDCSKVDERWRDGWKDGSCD
HNF4A DNA FP – change in binding of human HNF4A to DNA, primary screen, biochemical, fluorescence polarization, FITC-DNA. 1 h. activity change, % at 10 µM. AID 1224865, 2016. 360,000 compounds, 0.3% hits; in the data active = activity change above about 30%, passing the limit was not always enough;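 also: controls were the assay level and a saturating level of protein; the project sought stronger binding though the title names inhibitors; some compounds called inactive have numbers as strong as hits; positive values seem to mean higher polarization but the record does not say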
FGF22 binding – binders of human FGF22 protein, primary screen, FGF22 synaptogenesis inhibitor project, biophysical, thermal shift, single point; 340,000 compounds, 1.5% hits; recombinant FGF22 thermal shift, SYPRO orange fluorescence; percent of sucrose octasulfate shift, DMSO zero; calls only at 9.99 µM; Fibroblast growth factor 22 (Homo sapiens), Q9HCT0;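 active = melting point raised past a set limit in the mean and every replicate; inconclusive = no clear call; three in four hits are not shown here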
Target sequence (Q9HCT0 whole entry, looked up): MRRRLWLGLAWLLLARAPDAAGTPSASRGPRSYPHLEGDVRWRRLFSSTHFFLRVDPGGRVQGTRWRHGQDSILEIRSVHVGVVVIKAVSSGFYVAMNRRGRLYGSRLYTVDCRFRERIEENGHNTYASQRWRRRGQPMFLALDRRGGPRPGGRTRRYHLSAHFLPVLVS
MLL AF4-AF9 inh – inhibitors of AF4 peptide binding to AF9, primary screen, biochemical, AlphaScreen, biotin-AF4 peptide, FLAG-AF9, single point. Protein AF-9 (Homo sapiens), P42568. inhibition, % at 10 µM. 350,000 compounds, 0.47% hits;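 active = every replicate reaching a set inhibition limit, whatever the replicate mean, cut at about 25% in these data; inconclusive = mean inhibition reaches that limit but some replicates miss it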;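 also: 0% = plate neutral control median and 100% = total signal loss; the record names both 10 and 1 µM as test concentration; the first replicate is given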
Target sequence (P42568 whole entry, looked up): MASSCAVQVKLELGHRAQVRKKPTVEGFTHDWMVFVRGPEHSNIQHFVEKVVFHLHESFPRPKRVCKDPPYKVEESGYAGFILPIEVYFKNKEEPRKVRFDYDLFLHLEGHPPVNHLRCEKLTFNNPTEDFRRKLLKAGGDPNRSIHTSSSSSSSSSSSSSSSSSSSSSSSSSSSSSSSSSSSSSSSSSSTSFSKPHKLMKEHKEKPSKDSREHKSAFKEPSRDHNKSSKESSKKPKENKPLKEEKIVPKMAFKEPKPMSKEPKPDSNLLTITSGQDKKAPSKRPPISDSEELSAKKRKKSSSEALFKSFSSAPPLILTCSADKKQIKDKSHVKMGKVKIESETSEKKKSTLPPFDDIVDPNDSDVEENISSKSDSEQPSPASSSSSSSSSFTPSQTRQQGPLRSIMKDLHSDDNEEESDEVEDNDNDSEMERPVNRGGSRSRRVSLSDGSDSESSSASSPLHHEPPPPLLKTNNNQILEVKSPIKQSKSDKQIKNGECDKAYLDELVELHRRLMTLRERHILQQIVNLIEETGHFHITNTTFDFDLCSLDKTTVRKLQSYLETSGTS
Ecoli rRNA inh OD600 – also measured in Ecoli rRNA inh; calls as there; OD600 change, %; measured here: OD600 growth;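 optical density of the mix in the first replicate; 0 = DMSO median and -100 = no signal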
Ecoli rRNA inh RFP – recorded beside Ecoli rRNA inh, whose call it bears; RFP signal change, %; measured here: RFP humanized mutant strains;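 first replicate; 0 = DMSO median and -100 = no signal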
* = called active by the depositor; i = inactive; ? = inconclusive; / = not tested or not shown; & = joins results of further samples. An excerpt; the hit share may differ from the screen's.

SMILES	Vif A3G	Ecoli growth	Ecoli rRNA inh	Ecoli rRNA inh OD600	Ecoli rRNA inh RFP	ALR H2O2 inh	HNF4A DNA FP	FGF22 binding	MLL AF4-AF9 inh
CCOc1ccccc1CNC(=O)CCc1cn(CC)c2ccccc12	2.8%	0.681	-13.1	-17.4	0.2	-8.3	4.2	i	0.6
CC(O)c1cccc(NC(=O)CCCc2ccccc2)c1 (centres undefined)	1.4%	0.62	3.6	0.6	-0.9	-13.0	-2.6	/	-1.9
Cc1ccc(N/N=C2\CS(=O)(=O)N(C)c3ccsc32)cc1	14.5%	/	-11.6	10.9	0.8	-3.8	-0.3	i	-1.1
O=C(c1cccs1)N(c1ccc(Cl)cc1)C1C=CS(=O)(=O)C1 (centres undefined)	18.4%	0.705	5.9	1.6	-5.5	4.1	-2.1	i	2.1
FC(F)(F)c1cnc2c(c1)Nc1ccccc1S2	11.8%	0.723	/	/	/	?	-1.9	/	/
Cn1ncc2c(NCc3ccccc3)ncnc21	-8.8%&8.7%	0.676	7.3	0.6	-0.6	-1.1	0.3	i	-25.2
CCC(=O)N1C[C@@H](C)[C@H](OC)CN(C)C(=O)c2cc(NC(=O)c3ccccc3)ccc2OC[C@@H]1C	/	/	0.1	-3.0	1.0	/	/	i	-2.1
COc1ccc(OC)c(-n2c(-c3cccc(S(=O)(=O)N(C)C)c3)n[nH]c2=S)c1	-9.5%	0.677	2.9	0.7	-1.7	-3.9	-6.0	i	-2.3
C[C@@H]1CN([C@H](C)CO)C(=O)Cc2cc(NC(=O)Nc3cccc4ccccc34)ccc2O[C@@H]1CN(C)C(=O)Nc1ccccc1	/	/	-2.7	-10.6	2.8	/	/	i	2.2
CC(C)CC#Cc1cnc2c(c1)C(=O)N([C@@H](C)CO)C[C@@H](C)[C@@H](CN(C)C(=O)c1ccc(F)cc1)O2	/	/	4.0	3.7	-0.4	/	/	i	-0.1
CC(C)NC(=O)N[C@H]1CC[C@@H](CC(=O)O)O[C@H]1CO	/	/	1.4	1.0	-1.0	/	/	i	-4.0
CCn1c(/C=C2\C(=O)Nc3ccccc32)nc2ccccc2c1=O	/	0.669	/	/	/	-2.2	1.8	/	/

Given with values under each structure: 3 of the compounds above.
Below each compound – Vif A3G	Ecoli growth	Ecoli rRNA inh	Ecoli rRNA inh OD600	Ecoli rRNA inh RFP	ALR H2O2 inh	HNF4A DNA FP	FGF22 binding	MLL AF4-AF9 inh
- FC(F)(F)c1cnc2c(c1)Nc1ccccc1S2
 : 11.8%	0.723	/	/	/	?	-1.9	/	/
- C[C@@H]1CN([C@H](C)CO)C(=O)Cc2cc(NC(=O)Nc3cccc4ccccc34)ccc2O[C@@H]1CN(C)C(=O)Nc1ccccc1
 : /	/	-2.7	-10.6	2.8	/	/	i	2.2
- CCC(=O)N1C[C@@H](C)[C@H](OC)CN(C)C(=O)c2cc(NC(=O)c3ccccc3)ccc2OC[C@@H]1C
 : /	/	0.1	-3.0	1.0	/	/	i	-2.1

Other results follow:
SMILES	Vif A3G	Ecoli growth	Ecoli rRNA inh	Ecoli rRNA inh OD600	Ecoli rRNA inh RFP	ALR H2O2 inh	HNF4A DNA FP	FGF22 binding	MLL AF4-AF9 inh
O=C(NCC1CCCO1)c1ccc(NS(=O)(=O)c2cccs2)cc1 (centres undefined)	20.8%	0.706	-0.2	3.0	2.9	-6.0	-4.3	i	-22.2
O=C(CN1C(=O)NC(c2ccccc2)(c2ccccc2)C1=O)Nc1ccc(N2CCOCC2)cc1	4.0%	0.671	-5.1	-2.8	18.4	/	-2.1	i	6.4
CCN(CC)CCn1c2c(c(SCC(=O)Nc3ccc(C)c(F)c3)nc1=O)CCCC2	1.9%	0.69	13.2	11.6	0.8	97.0*	-1.0	/	0.9
CC(=O)C1=C(O)C(=O)N(c2ccc(O)cc2)C1c1ccccc1[N+](=O)[O-] (centres undefined)	/	0.719	-1.4	1.7	2.0	/	-1.0	i	-2.2
CN(C)CCNC(=O)c1[nH]nc2c1CCc1ccccc1-2	-6.7%	0.661	13.7	14.4	1.4	-17.0	2.5	i	0.6
CC(C)NC(=O)N1CC[C@@H]2[C@H]1c1cc(Br)ccc1N(C)[C@@H]2CO	/	/	5.5	8.2	-2.6	/	/	i	-7.0
Cc1ccc(NC(=O)COC(=O)COc2cccc3c2OC(C)(C)C3)cc1S(=O)(=O)N1CCOCC1	-6.3%	0.717	-1.6	-2.4	-1.7	-13.4	-0.1	i	-12.4
COc1ccccc1NC(=O)c1ccccc1-c1nc(-c2ccccc2OC)no1	0.5%	0.731	/	/	/	-25.3	18.2	/	/
Cn1c(CCC(=O)O)nc2cc(S(=O)(=O)N3CCCCC3)ccc21	-7.6%	0.677	9.2	5.5	5.8	-6.0	-2.1	i	4.1
CCCC(C)C(=O)NCc1ccc2c(c1)OCO2 (centres undefined)	7.8%	0.762	/	/	/	-9.6	0.1	/	/
O=C1C=C(c2ccc(CO)cc2)C[C@@H](c2ccc3c(c2)OCO3)C1	/	/	-15.7	-15.5	-12.6	1.1	5.4	i	0.2
CCC(=O)N1C[C@H](C)[C@H](OC)CN(C)C(=O)c2ccc(NS(C)(=O)=O)cc2OC[C@H]1C	/	/	0.5	-1.0	-0.6	/	/	i	-0.9
COc1ccc(C(=O)N2CCCC(c3nc(-c4ccc(OC)c(OC)c4)no3)C2)c(OC)c1 (centres undefined)	-1.6%	0.671	/	/	/	-1.4	-4.1	/	/
CC1=C(C(=O)OCc2ccc3c(c2)OCO3)C(c2ccc(F)cc2)NC(=O)N1 (centres undefined)	-1.8%	0.624	/	/	/	-9.6	-2.5	/	/
C[n+]1cccc(C(=O)[O-])c1	/	0.693	/	/	/	-16.8	1.6	i	-4.6
COc1cccc(C(=O)COc2ccccc2-c2ccccc2)c1	/	0.675	1.5	2.3	-4.3	1.2	-2.3	i	-1.6
COC(=O)c1ccc(NC(=S)Nc2ccccn2)cc1	-6.6%	0.77	/	/	/	1.3	0.0	/	/
C[C@@H]1CCCCO[C@H](CN(C)Cc2ccc(Cl)c(Cl)c2)[C@@H](C)CN([C@H](C)CO)C(=O)c2cc(NC(=O)NC3CCCCC3)ccc2O1	/	/	1.2	-0.9	0.3	/	/	i	1.0
COc1ccc(-c2csc(C(NC(C)=O)c3cccc(OC)c3)n2)cc1 (centres undefined)	/	/	8.9	6.9	1.5	/	-0.6	i	1.3
COc1ccc(/C=N/Nc2nc(-c3cccnc3)nc3ccccc23)cc1OC	4.2%	/	-10.5	-5.7	6.7	/	2.5	i	-1.2
CO[C@@H]1CN(C)C(=O)c2cc(NC(=O)c3ccc4c(c3)OCO4)ccc2OC[C@@H](C)N(CC2CC2)C[C@@H]1C	/	/	0.4	-4.2	-1.6	/	/	i	-3.3
COc1cc(N/N=C/c2ccc(N(C)C)cc2)ncn1	3.0%	/	7.4	10.8	15.4	/	-1.9	i	-1.6
COC(=O)NNC(=O)COc1ccc(Br)c(C)c1	25.4%	0.729	/	/	/	5.4	-0.8	/	/
O=C(NC(=S)NCCc1ccccc1)c1ccccc1	0.6%	0.724	-3.1	-5.5	-2.8	-2.4	0.0	i	9.3
C[C@H](CO)N1C[C@H](C)[C@H](CN(C)Cc2ccc(Oc3ccccc3)cc2)Oc2ccc(NS(=O)(=O)c3cn(C)cn3)cc2CC1=O	/	/	1.9	-11.6	2.5	/	/	i	5.3
O=C(c1cccnc1)N1C[C@@H]2[C@H](c3ccccc31)[C@@H](CO)N2CC1CCCCC1	/	/	4.1	6.0	-2.0	/	/	i	1.8
Nn1c(SCc2ccc([N+](=O)[O-])cc2)nc2ccccc2c1=O	2.1%	0.707	0.5	9.1	-0.7	-2.6	3.0	i	-2.3
CCCNC(=O)N1[C@@H](CO)[C@@H]2c3ccccc3N(C(=O)Nc3cccc(F)c3)C[C@@H]21	/	/	-0.1	-11.7	-0.5	/	/	i	-2.4
Nc1ccccc1C(=O)N=Nc1[nH]c(N)c2ccccc12	-0.1%	0.719	-17.1	-3.1	-4.7	-3.3	-6.1	i	2.0
C[C@H](CO)N1C[C@H](C)[C@H](CN(C)C(=O)Nc2ccccc2)Oc2ccc(NC(=O)Nc3ccccc3)cc2C1=O	/	/	-1.6	4.8	-1.8	/	/	i	1.8
Nc1cc(N)cc(Cc2ccccc2)c1	/	/	3.6	22.3	5.5	/	8.7	i	4.6
O=C1c2ccccc2S(=O)(=O)c2cc(N3CCN(c4ccccn4)CC3)ccc21	/	/	5.0	3.9	-4.2	-1.1	4.7	i	3.1
COc1ccccc1-c1c(NC(=O)C(C)C)n(C)c2ccccc2c1=O	-1.0%	0.683	/	/	/	0.4	0.1	i	0.5
O=C(N/N=C/c1ccnc2ccccc12)c1ccccc1O	-4.3%	/	-10.0	-6.8	0.0	-2.9	2.3	i	1.4
CCOC(=O)c1c(-c2ccccc2)csc1NC(=O)c1cccc(N2C(=O)CCC2=O)c1	-20.1%	0.742	/	/	/	9.8	-0.2	/	/
Cc1ccc(C2=NN(CC(=O)NCc3ccccn3)C(=O)CC2)cc1	4.8%	0.695	9.9	3.0	-1.7	-2.4	3.4	i	-2.1
O=C(c1ccccc1)N1CC[C@@H]2[C@H]1c1cc(C#Cc3ccccc3F)ccc1N[C@@H]2CO	/	/	-7.4	-3.5	1.9	/	/	i	-1.7
O=C(c1ccccn1)N1C[C@@H]2[C@H](c3ccccc31)[C@H](CO)N2C(=O)C1CCOCC1	/	/	3.6	-0.9	-2.6	/	/	i	-3.9
CO[C@@H]1CN(C)C(=O)c2ccc(NC(=O)c3cccc(Oc4ccccc4)c3)cc2OC[C@@H](C)NC[C@H]1C	/	/	-9.5	-11.9	20.6	/	/	i	7.9
CCOC(=O)C1CCN(C(=O)c2ccc(CNS(=O)(=O)c3ccc(C)cc3)cc2)CC1	-2.8%	0.733	3.9	1.3	6.2	0.7	-1.8	i	-8.2
COC(=O)c1cc(S(=O)(=O)NCCc2ccccc2)c[nH]1	/	0.701	7.1	4.0	-0.8	-3.7	4.4	i	-0.3
Clc1ccc(C=NN2CCCCCC2)cc1	4.0%	0.69	6.2	6.6	-11.4	/	2.0	i	-0.5
CC(C)CC1c2[nH]c3ccccc3c2CCN1CCCn1cccn1 (centres undefined)	-14.3%	0.696	6.0	3.0	-1.0	14.1	1.6	i	4.9
COc1ccc([C@H]2/C=C\CN(S(=O)(=O)c3ccc(C)cc3)[C@@H](C)C(=O)N2Cc2ccc(F)cc2)cc1	/	/	5.0	4.0	-0.5	-1.8	-1.4	i	-1.8
O=C(CCl)Oc1ccc2occ(C(=O)c3cccs3)c2c1	?	0.696	/	/	/	97.3*	-0.7	/	/
CCc1ccc2c(CSc3nnnn3C)cc(=O)oc2c1	?	0.719	0.6	-3.2	-2.3	-4.8	-4.3	i	-0.3
CC(C)NC(=O)Nc1ccc2c(c1)C(=O)N([C@H](C)CO)C[C@H](C)[C@H](CN(C)C(=O)Nc1ccc3c(c1)OCO3)O2	/	/	0.6	-0.4	-1.7	/	/	i	-2.0
Cc1nn(C2CCS(=O)(=O)C2)c(C)c1C=O (centres undefined)	/	0.666	5.5	2.5	-0.9	-9.0	-0.2	i	1.3
